Source: PubChem
VACV Venus inh: vaccinia inhibition (Venus reporter) | Potency, µM (titrated, usually from 36.5 µM), inactives show at the highest dose activity change, negative = inhibition, most hits filed as inhibitors | AID 720580 | Vaccinia virus Venus reporter expression, fluorescence | 0.46% of 330,000 active; active means well fitted inhibition curve with a large enough effect; inconclusive means small, poorly fitted or top-dose-only effect; inactive means no such curve, though single readings can be large or run the other way; tested in A549 cells; note: nearly all actives have a fitted effect of over 30% in size; inactives centre near -10
Vaccinia mCherry: vaccinia inhibition (mCherry reporter); Potency, µM (doses to about 36.5 µM), inactives show at the highest dose activity change, negative = inhibition, actives largely listed as inhibitors; Vaccinia virus mCherry reporter infection, fluorescence; about a quarter of the inactives have no number; AID 720579; 0.63% of 310,000 active; active = well fitted inhibition curve with a large enough effect; inconclusive = small, poorly fitted or top-dose-only effect; inactive = no such curve, though single readings can be large or run the other way; tested in A549 cells; note: nearly all actives have a fitted effect of over 35% in size; inactives centre near -10
Numbers without * were called inactive; i = inactive; ? = inconclusive; . = no result given; & = joins results of further samples; [ ] = remark or other dose. % is set by controls: 0 for no effect and ±100 for the full control effect; potency is the fitted concentration of half-maximal effect.

| molecule | VACV Venus inh | Vaccinia mCherry |
| --- | --- | --- |
| Cc1ccc(NC(=O)c2ccc(NCc3ccc(F)cc3)nc2)cc1 | 1% | -19% |
| CCOC(=O)N1CCc2c(sc3c2c(=O)n(Cc2ccccc2)c(=O)n3CC(=O)Nc2c(C)cccc2C)C1 | ? | ? |
| CCn1cc(CN2CCCC(C(=O)c3ccc(-c4ccccc4)c(F)c3)C2)cn1 (stereo not drawn) | -20% | -15% |
| CCOC(=O)c1[nH]c2cc(OC)c(OC)cc2c1NC(=O)CCN1CCSCC1 | -11% | -8% |
| COC(=O)c1sc(-c2ccccc2)cc1NC(=O)c1cccc(F)c1 | -8% | -1% |
| O=C(O)CN1C(=O)NC2(CCCc3ccccc32)C1=O (stereo not drawn) | -17% | i |
| CCC(C)(C)NS(=O)(=O)c1cc(-c2cc(C)no2)ccc1C | -6% | -8% |
| Cc1cc(Cl)ccc1C(O)c1ncc(-c2ccc(Cl)cc2)[nH]1 (stereo not drawn) | -11% | -1% |
| CN1C(=O)CSc2ccc(NC(=O)NCc3ccco3)cc21 | -8% | -29% |
| OCCN(Cc1ccccc1)C(=S)NC1CCCCC1 | -12% | -9% |
| Cc1csc(CN(C)C(=O)c2cn(Cc3cccc4ccccc34)nn2)n1 | -8% | -12% |
| CCOC(=O)/C=C1/SCC(=O)N1CC(=O)c1ccc[nH]1 | 20% | -15% |
| Cc1cc(C)n(CC(=O)NCc2cc(-c3nn(C)c(=O)c4ccccc34)ccc2C)n1 | -18% | . |
| O=C(N/N=C/c1cc(Br)c(Br)o1)c1cc2ccccc2o1 | -28% | -23% |
| COc1ccc2[nH]cc(CCNC(=O)c3cnn(-c4ccc(C)cc4)c3C3CCN(C(=O)OC(C)(C)C)CC3)c2c1 | -18% | -7% |
| Cc1cccc(NC(=O)C2CCN(S(=O)(=O)c3ccc4c(c3)CCCN4C(=O)C3CCC3)CC2)c1 | -10% | -9% |
| Cc1ccc2nc(-c3ccc(-c4ccccn4)s3)cn2c1 | -7% | -13% |
| CCCCCCOc1ccc(C(CC(=O)O)C(N)=O)cc1 (stereo not drawn) | -7% | . |
| CC(O)(C#CCN1CCOCC1)c1ccccc1 (stereo not drawn) | -14% | -14% |
| COc1cc(Cl)c(NS(=O)(=O)c2c(C(=O)N3CCCC3)c(C)n(C)c2C)c(OC)c1 | -7% | -4% |
| CCOC(=O)C1CCN(c2ccc(C(N)=O)cc2[N+](=O)[O-])CC1 | -19% | i |
| N=c1n(CCCOc2ccc(Br)cc2)c2ccccc2n1CC(N)=O | 0%[7.34 µM] | i[7.34 µM] |
| COc1cccc(C(=O)N2CCN(c3ncccn3)CC2)c1 | -6% | . |
| COCCCN(C(=O)CCOc1ccccc1C)c1c(N)n(Cc2ccccc2)c(=O)[nH]c1=O | -2% | -18% |
| O=c1[nH]cnc2c1nc(Cl)n2C1OC(CO)C(O)C1O (stereo not drawn) | 33%[activator] | 13% |
| COc1ccccc1CCC(=O)Nc1cccc(S(=O)(=O)N2CCOCC2)c1 | -16% | -27% |
| COc1cccc(C(c2sc3nc(-c4ccco4)nn3c2O)N2CCC3(CC2)OCCO3)c1 (stereo not drawn) | -7% | -6% |
| COc1cccc(N2CCN(C(=O)c3cc4c(s3)-c3ccccc3OC4)CC2)c1 | 7%&-4% | -13%&1% |
| CC(=O)Nc1ccc(S(=O)(=O)N(C)C2CCN(C)CC2)cc1 | 3% | -9% |
| COc1ccc(CCc2cc(OC)c(OC)c(OC)c2)cc1 | -26% | -12% |
| Cc1csc(NC(=O)c2ccc(S(=O)(=O)N3CCN(C)CC3)cc2)n1 | -6% | 2% |
| CCCCCC(=O)Nc1cccc(C2=NOC3(C2)C[C@@H](C(N)=O)N(C(=O)c2ccc(Cl)cc2)C3)c1 (stereo partly drawn) | -22% | -25% |
| COc1cc(OC)cc(C(=O)NCC(=O)OCC(=O)c2cc(OC)ccc2OC)c1 | -5% | i |
| CC(C)CNC(=O)N1c2ccccc2Sc2ccccc21 | -4% | -16% |
| Cc1ccc(NC(=O)CSc2nnc(-c3cccnc3)n2-c2ccc(C)cc2)cc1 | -28% | . |
| COc1ccccc1C(=O)OCC(=O)Nc1cccc(S(=O)(=O)N2CCCC2)c1 | -13% | i |
| O=C(Nc1ccccc1)C1=C[C@@H](c2ccc(Br)cc2)C[C@@H](OCCCCO)O1 | -9% | -7% |
| CCN(CC)C(=O)c1sc2c(c1C)c(=O)n(Cc1ccccc1)c(=O)n2CC(=O)Nc1ccc(OC)cc1 | -15% | -27% |
| O=C(C[n+]1cccc(NC(=O)c2ccccc2)c1)c1ccc(NC(=O)c2ccccc2)cc1 | -22% | . |
| O=[N+]([O-])c1ccc(NC2CCCC2)c2ccncc12 | -14% | ? |
| O=C(COc1ccc(F)cc1)Nc1nnc(SCc2cc(=O)n3ccccc3n2)s1 | -4% | -12% |
| CC1(C(=O)NS(=O)(=O)c2cccc(F)c2)CCN1C(=O)CC1CCCC1 (stereo not drawn) | 11% | 0% |
| CCO[C@H]1OC(C(=O)Nc2ccccc2)=C[C@@H](c2ccc(Br)cc2)[C@@H]1CCCO | ? | i |
| CCCCCc1ccc(-c2cn(Cc3ccc(C(=O)c4ccccc4)cc3)nn2)cc1 | ? | -14%&-24% |
| COc1ccc(CCN(C)C(=O)c2cccc(S(=O)(=O)NCc3ccccc3)c2)cc1OC | -20% | -18% |
| COc1ccc(COn2c(=O)c(C)[n+]([O-])c3ccccc32)cc1OC | 8% | -20% |
| CCc1ccccc1OCCSc1nc(-c2cccs2)nc2cc(=O)[nH]n12 | -7% | -8% |
| COc1ccc(NC(=O)CSCC(=O)Oc2c(OC)cccc2OC)cc1 | -4% | -6% |
| COc1cccc(CNc2ccc3c(c2)ncn3C(C)C)c1OC | -16% | ? |
| Cc1ccc(S(=O)(=O)NCC2CCC(C(=O)NCCCOC(C)C)CC2)cc1 (stereo not drawn) | -6% | -15% |
| O=C(NC1CC1)c1ccc(F)cc1Cl | 0% | -14% |
| Cc1ccc(NC(=O)C(Cc2ccccc2)NC(=O)c2ccco2)cc1 (stereo not drawn) | -21% | i |
| Cc1ccc(S(=O)(=O)N[C@@H](C)C(=O)N2CCC(C(=O)N3CCC[C@H]3C(=O)O)CC2)cc1 | -9% | . |
| CC(NC(=O)CSc1n[nH]c(-c2ccccc2Cl)n1)c1nc2ccccc2n1C (stereo not drawn) | -10% | -17% |
| CCN(C(=O)COC(=O)CSc1ccc([N+](=O)[O-])cc1)C1CCS(=O)(=O)C1 (stereo not drawn) | -9% | -20% |
| CC(/C=N/NC(=O)c1cc(-c2ccc(Cl)cc2)nc2ccccc12)=C\c1ccco1 | ? | ? |

Following part
| molecule | VACV Venus inh | Vaccinia mCherry |
| --- | --- | --- |
| COc1ccc(-c2nnc(SCC(=O)N3CCCC3)o2)c(OC)c1 | 0% | -10% |
| O=C(Nc1ccccc1)N(CCCN1CCOCC1)Cc1cc2cc3c(cc2[nH]c1=O)OCCO3 | -21% | . |
| CC(C)Nc1nc(NC(N)=S)nc(NC(C)(C)C)n1 | -13% | -3% |
| CC1=C(/C=C/C(C)=C/C=C/C(C)=C/C=C/C=C(C)/C=C/C=C(C)/C=C/C2=C(C)C(=O)CCC2(C)C)C(C)(C)CCC1=O | 17% | -6% |
| COc1ccccc1-c1noc2c1C(=O)N(Cc1cn(-c3ccc(Cl)cc3)nn1)CC2 | -14% | -18% |
| CC(NC(=S)Nc1ccc(F)cc1)c1ccccc1 (stereo not drawn) | -12% | -4% |
| O=C1NN=C(c2ccccc2)C1Cc1ccccc1 (stereo not drawn) | -17% | 0% |
| Cc1cccc(-n2c(/C=C/c3c(C)[nH]c4ccccc34)nc3ccccc3c2=O)c1 | -20% | -27% |

Record cards, as listed above:
Results for O=C(Nc1ccccc1)N(CCCN1CCOCC1)Cc1cc2cc3c(cc2[nH]c1=O)OCCO3 → VACV Venus inh: -21%; Vaccinia mCherry: .
Results for COc1ccccc1-c1noc2c1C(=O)N(Cc1cn(-c3ccc(Cl)cc3)nn1)CC2 → VACV Venus inh: -14%; Vaccinia mCherry: -18%

3 consecutive records out of the list so far:
| molecule | VACV Venus inh | Vaccinia mCherry |
| --- | --- | --- |
| CC(NC(=S)Nc1ccc(F)cc1)c1ccccc1 (stereo not drawn) | -12% | -4% |
| O=C1NN=C(c2ccccc2)C1Cc1ccccc1 (stereo not drawn) | -17% | 0% |
| Cc1cccc(-n2c(/C=C/c3c(C)[nH]c4ccccc34)nc3ccccc3c2=O)c1 | -20% | -27% |

Carrying on:
| molecule | VACV Venus inh | Vaccinia mCherry |
| --- | --- | --- |
| COC(=O)c1sc(C(C)(C)C)cc1CSc1ccccc1 | -10% | i |
| Oc1ccc2ccccc2c1CN1CC2CCC(CC2)C1 | -3% | -14% |
| Cc1ccc(NC(=O)C2CCN(S(=O)(=O)c3ccc(N4CCCC4=O)cc3)CC2)cc1Cl | -17% | -10% |
| CN(C)C(CNC(=O)Cc1c(Cl)cccc1Cl)c1ccccc1 (stereo not drawn) | -22% | -3% |
| O=C(NOC(=O)c1cc(Br)ccc1Cl)c1cccs1 | -9% | -10% |
| COc1ccc(NC(=O)c2sc3nc(C)c(C(=O)Nc4ccc(Cl)cc4)c(-c4ccc(Br)cc4)c3c2N)cc1 | -13% | 11% |
| COc1ccccc1OCCOc1ccc(/C=N/n2cnnc2)cc1 | -13% | i |
| Cc1ccc(NC(=O)c2ccc([N+](=O)[O-])cc2Cl)nc1 | -5% | i |
| COc1cccc(Cn2c(Oc3cccc(C)c3)nc3c2c(=O)n(C)c(=O)n3C)c1 | -8% | . |
| CC1CCc2c(nc3sc4c(c3c2N)CCCC4)C1 (stereo not drawn) | ? | -20% |
| COC(=O)c1c(NC(=O)COc2cccc(C(F)(F)F)c2)sc2c1CCCC2 | 1% | 1% |
| COc1cc(C)ccc1S(=O)(=O)N1CCCCCC1 | -5% | -5% |
| COc1ccc(C2=NC3(CCCCCC3)N(CC(=O)Nc3ccc(C)c(C)c3)C2=O)cc1 | -22% | -20% |
| O=C(COc1cccc([N+](=O)[O-])c1)N/N=C/c1ccco1 | -10% | -1% |
| Cc1c(C(=O)N2CCc3ccccc3C2)sc2nc(-c3ccccc3)cn12 | -12% | -3% |
| CCN(CC)C(=O)Cn1cc(C(=O)C(=O)NCCCn2ccnc2)c2ccccc21 | 3% | -1% |

Later entries
canonical_smiles | VACV Venus inh | Vaccinia mCherry
O=C(COC(=O)Cc1c[nH]c2ccccc12)NC1CCCCC1 | 5% | 3%
c1ccc(-c2ccncc2)cc1 | -5% | i
Cc1nn(-c2ccccc2)c2[nH]c(C(F)(F)F)cc(=O)c12 | -8% | -23%
CN1CCN(C(=O)c2cnn(-c3ccccc3)c2C2CCN(C(=O)OC(C)(C)C)CC2)CC1 | -5% | -4%
COC(=O)c1cc(OC)c(OC)cc1NC(=S)N1CCN(Cc2ccccc2)CC1 | -12% | i
Clc1ncn(CCOc2ccccc2)c1Cl | -8% | -15%
CCOc1ccccc1/C=C/c1onc(C)c1S(=O)(=O)N1CCC(C(=O)N2CCCCC2)CC1 | -18% | -28%
CCCCn1c(N)c(N(C(=O)CSc2nnnn2-c2ccccc2C)C2CCCC2)c(=O)[nH]c1=O | -14% | i
COc1ccccc1N1CCN(c2nc3ccc(C)cc3n3nnnc23)CC1 | 0% | -6%
COC(=O)C1c2ccccc2-c2ccccc21 | -14% | -6%
Nc1nc(SCc2ccccc2Cl)nc2nc3c(cc12)CCCC3 | -14% | -16%
COc1ccc(C)cc1S(=O)(=O)NNc1nc(C)cc(C)n1 | 7% | -8%
COc1ccc(F)cc1C(=O)C1CCCN(Cc2cn(C)c3ccccc23)C1 (stereo not drawn) | -24% | -22%
O=C(CSc1nc2ccccc2c(=O)n1-c1ccccc1)N1CCCc2ccccc21 | -26% | ?
COc1ccc(CCN(C(=O)C(F)(F)F)C(C(=O)NC2CCCCC2)c2cccs2)cc1 (stereo not drawn) | -21% | i
CC(C)c1ccc(C(=O)CC2(O)C(=O)N(CCc3ccccc3)c3ccc(Cl)cc32)cc1 (stereo not drawn) | -24% | ?
O=C(Cc1ccc(Cl)cc1)NCCCNC(=O)c1cccnc1 | -4% | i
CCN1CCN(C(=O)Cn2c(-c3cccs3)cc3cc(Cl)ccc32)CC1 | -17% | -13%
CC(=O)Nc1ccc(-n2cc3c(c2-c2ccc(C)cc2)c(=O)n(C)c(=O)n3C)cc1 | -17% | -22%
COc1ccc(NC(=S)NC(=O)c2cc3ccccc3o2)c(OC)c1 | -8% | i
CCOC(=O)C1CCCN(c2c(N3CCN(c4ccccn4)CC3)c(=O)c2=O)C1 (stereo not drawn) | -5% | i
FC(F)(F)c1nnc2ccc(N3CCCCCC3)nn12 | -17% | i
O=C(O)c1cccc2c1C(=O)c1cc(Br)ccc1S2(=O)=O | 9% | 1%
CCOc1cccc2cc(-c3nc4sc5c(c4c(=O)[nH]3)CCC(C(C)(C)C)C5)c(=O)oc12 (stereo not drawn) | -3% | -3%
COc1ccc(C2Nc3ccccc3C(=O)N2c2ccccc2)cc1COc1ccccn1 (stereo not drawn) | -11% | -8%
O=C(COc1ccccc1Cl)Nc1cnn(Cc2ccccc2)c1 | -4% | .
COc1ccc(CNC(=O)CNC(=O)CNS(=O)(=O)c2ccc(C)c(C)c2)cc1 | -13% | 0%
O=C(Nc1cc(Cl)ccc1Cl)c1ccc(OC(=O)c2ccco2)cc1 | -17% | -1%
COc1ccc(N2CCN(CCNS(=O)(=O)c3ccc(C)cc3)CC2)cc1 | -3% | -20%
O=C(NCC1CCCO1)C1c2ccccc2Oc2ccccc21 (stereo not drawn) | 3% | -5%
COc1ccc(SCCN2CC[C@@H](C(C)(C)C)CCC2=O)cc1 | -14%&-11% | i
COC1(OC)C(/C=C/c2ccc(Cl)cc2)C(C#N)(C#N)C1(OC)OC (stereo not drawn) | ? | ?

An unsorted share of the library, and some 0.82% of all compounds hit somewhere here.
